Bioassay records from PubChem BioAssay.
MT1-MMP promoter = inhibitors of MT1-MMP promoter transcription, cell-based, luciferase reporter, luminescence (AID 618). hit rate 0.62% among 87,000. calls from a first round at 10 µM; hits with a dose series show EC50 in µM. MT1-MMP promoter luciferase reporter cells, luminescence;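 active = over half of the reporter light lost at 10 µM or EC50 under 50 µM; inactive = the rest and hits that failed the dose series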;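 note: actives suppress MT1-MMP promoter-driven transcription so potencies describe inhibitors; HT1080 fibrosarcoma cells; overnight exposure; toxic or luciferase-blocking compounds were not removed from the actives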
WNV NS2B-NS3 inh = WNV NS2B-NS3 proteinase inhibition; P06935; WNV NS2B-NS3 protease, fluorogenic substrate Ex360/Em465; active compounds read low; z-score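 (tested at a level between 10 and 100 µM)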; hit rate 0.18% among 65,000;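 active = z-score at -3 or under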;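 note: score is relative to mean and spread of the compound wells of a plate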
Target sequence (P06935 1371-1501 limits assumed): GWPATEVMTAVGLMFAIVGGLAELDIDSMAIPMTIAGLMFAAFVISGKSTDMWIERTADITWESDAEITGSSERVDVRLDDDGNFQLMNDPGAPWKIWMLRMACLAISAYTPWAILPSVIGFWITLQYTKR
Target sequence (P06935 1502-1679 limits assumed): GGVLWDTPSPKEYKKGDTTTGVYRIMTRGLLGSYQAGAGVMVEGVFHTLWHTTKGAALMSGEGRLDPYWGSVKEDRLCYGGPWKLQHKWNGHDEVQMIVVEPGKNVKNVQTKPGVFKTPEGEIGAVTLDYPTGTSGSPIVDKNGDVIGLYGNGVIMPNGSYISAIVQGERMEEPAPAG
Hsc70 ATP site = Hsc70 inhibitors, probe displacement, primary screen, biochemical, fluorescence polarization (AID 568). 83,000 tested, under 10 active. one-dose displacement, % at 20 µM; IC50 in µM for titrated hits. Hsc70 fluorescence polarization, probe displacement; higher % means a stronger effect; strong numbers were not always called active;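 active = displacement above 50% without optical interference and an IC50 on retest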;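 note: ATPase domain with a fluorescein-tagged ATP probe; 0% = vehicle and 100% = excess ADP; read after one hour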
* hit, by the source's call; i = inactive; . = not tested or not shown; & = joins results of further samples.

SMILES | MT1-MMP promoter | WNV NS2B-NS3 inh | Hsc70 ATP site
CCCCOCCCn1c(-c2ccco2)nc2nc3ccccc3nc21 | i | 4.1 | -12%
CC(=O)Nn1c(COc2ccccc2C)nc2ccccc2c1=O | i | -1 | -3.2%
Cc1ccc(/C=N/n2cnc3sc4c(c3c2=O)CCCC4)o1 | i | 0.96 | -2.1%
O=C(OCC1OC(n2cnc3c(N(C(=O)c4ccccc4)C(=O)c4ccccc4)ncnc32)C(O)C1F)c1ccccc1 (stereo unspecified) | i | . | -6.1%
COC(=O)CC1Sc2ccccc2NC1=O (stereo unspecified) | i | -0.87 | -10%
CN(C)C(=O)CSc1nnc(-c2cc(-c3cccs3)nc3ccccc23)o1 | i | 1.7 | 4.2%
CC(=O)c1cc(C)ccc1OC(=O)c1cccc2nc(C)oc12 | i | -0.61 | -2.6%
Cn1c(=O)c2c(-c3ccccc3)n(C3CCCCC3)cc2n(C)c1=O | i | -1 | 4.6%
Cc1nc2sc(C(c3cccc(F)c3)N3CCN(C(=O)c4ccco4)CC3)c(O)n2n1 (stereo unspecified) | i | 1.2 | -10%
COc1ccc(C2=NOC(Cn3c(Cc4ccc(Cl)cc4)nc4c3c(=O)n(C)c(=O)n4C)C2)cc1 (stereo unspecified) | i | -0.41 | 5.6%
CCOC(=O)N1CCC(NC(=O)c2cc3c(-c4ccccc4F)nn(C)c3s2)CC1 | i | -0.55 | 4.7%
O=C(Cn1nnc(-c2ccncc2)n1)Nc1ccc2c(c1)CCC2 | i | 0.22 | -3.7%
Cc1c(Br)cc(C(=O)NC2CCCCC2)c(C)c1C | i | . | 5.1%
COC(=O)[C@H](C)NC(=O)Nc1ccc(Oc2ccccc2)cc1 | i | 0.15 | 8.0%
Cc1cc(Nc2nc3ccccc3nc2Cl)n(-c2ccccc2)n1 | i | . | 2.5%
COCC(=O)/C=C1\Sc2ccccc2N1C | i | -0.95 | 0.1%
OC(CNc1nc2ccccc2s1)c1ccccc1 (stereo unspecified) | i | 0.0094 | -2.6%
CC(C)(C)NC(=O)CN(Cc1cccnc1)C(=O)c1csnn1 | i | 0.39 | 5.2%
CC(=O)c1ccc(-n2c(CCC(=O)O)ccc2-c2cccs2)cc1 | i | . | -2.7%
CCCn1c(=N)c(C(=O)NCc2ccc3c(c2)OCO3)cc2c(=O)n3cccc(C)c3nc21 | i | -0.58 | -6.7%
Cc1cc(C)nc(N2CCCC(C(=O)NCCc3cccc(F)c3)C2)n1 (stereo unspecified) | i | 1.7 | -3.7%
O=C(O)/C=C/c1cn(Cc2ccccc2)nc1-c1ccccc1 | i | . | -0.2%
CC(C)CSc1nnc2[nH]c(=O)cc(N)n12 | i | 0.03 | -3.1%
O=C(N1CCOCC1)N1CCOCC1 | i | 0.66 | 0.0%
COC(=O)C1=C(C)N(CC(C)C)C(=O)C1 | i | . | -2.1%
c1ccc2c(c1)OCC(c1nnc3n1-c1ccccc1SC3)O2 (stereo unspecified) | i | -0.59 | -1.0%
CCCC(=O)Nc1cc(C)c(NC(=O)c2ccccn2)cn1 | i | -0.26 | 5.8%
CCCCCOC(=O)c1ccc(N2C(=O)C3C4C=CC(C4)C3C2=O)cc1 (stereo unspecified) | i | . | -2.1%
CC(NC(=O)Cc1cccs1)C(c1cccs1)N1CCN(c2ccccc2F)CC1 (stereo unspecified) | i | -1.4 | -9.9%
Cc1cc(NS(=O)(=O)c2ccccc2)c(C)c(Cl)c1O | i | -0.55 | 3.4%
Cn1c(=O)c2c(nc(NCCc3ccccc3)n2Cc2ccccc2)n(C)c1=O | i | 2 | 4.6%
C=CCc1ccc(OCc2ccc(C(=O)OC)o2)c(OC)c1 | i | . | -1.6%
CCOC(=O)c1[nH]c2ccc(C)cc2c1N=CN(CC)CC | i | 0.18 | 2.2%
CCc1nn(CCCC(=O)N2CCc3ccccc3C2)c(=O)c2cc3occc3n12 | i | -0.09 | -4.0%
O=C(NCCCN1CCOCC1)C1COc2ccccc2O1 (stereo unspecified) | i | . | -2.4%
CC(C)(C)n1nnnc1CN1CCC(NC(=O)NC2CCCCC2)CC1 | i | 0.02 | -1.6%
O=C1CC(=O)N(CCc2ccccc2)C(=O)N1CCc1ccccc1 | i | -0.17 | -15%
Cc1ccc(SC(C)C(=O)Nc2ncn[nH]2)cc1 (stereo unspecified) | i | 1.7 | 2.4%
CC(=O)NC1(c2ccc(F)cc2)CCN(C(=O)Nc2ccc(F)cc2F)CC1 | i | . | 4.6%
CC(=O)N(C)c1ccc(NC(=O)c2ccccc2C(=O)O)cc1 | i | 0.31 | -5.6%
CC1CC(C)CN(c2ncc3c(n2)CC(c2ccc(Cl)cc2)CC3=O)C1 (stereo unspecified) | i | 0.2 | -7.9%
CCCNCCC(c1ccco1)c1ccccc1OC (stereo unspecified) | i | . | 10%
Cc1cccc(OCCSc2ncnc3nc[nH]c23)c1 | i | . | -1.1%
O=C(CSc1nnc(COc2ccccc2)n1Cc1ccco1)NCc1ccco1 | i | -2.5 | 1.6%
Cc1cc(C)n(-c2ccc(C(=O)OCC(=O)NCc3ccco3)cc2)n1 | i | 0.82 | -2.6%
c1cncc(-c2nnc(-c3ccco3)o2)c1 | i | -0.41 | -1.6%
CCOC(=O)c1cccc(NC(=O)Cn2cnc3c2c(=O)n(C)c(=O)n3C)c1 | i | 0.26 | 0.1%
CCOC(=O)N1CCN(c2c(Nc3cc(C)[nH]n3)c(=O)c2=O)CC1 | i | 0.39 | -5.1%
CC(C)CC(NS(=O)(=O)c1ccc2c(c1)oc(=O)n2C)C(=O)NCc1cccnc1 (stereo unspecified) | i | -1.4 | 3.9%
COc1cccc(C2C(C(=O)c3cc4ccccc4o3)=C(O)C(=O)N2c2cc(C)on2)c1OC (stereo unspecified) | i | 0.82 | -4.2%
O=S(=O)(Nc1ccc(F)cc1)N1CCCCCC1 | i | -0.32 | 0.3%
COc1ccccc1NC(=O)CCN1C(=O)C2CC=C(Cl)CC2C1=O (stereo unspecified) | i | -0.73 | -8.4%
CCOc1ccc(OCC)c(NC(=O)CN(C)S(=O)(=O)c2cccc3nsnc23)c1 | i | -1.5 | -4.7%
COC(=O)CC1=C(C)C(=O)CC2C(C)(C)CCCC12C (stereo unspecified) | i | -0.12 | 6.2%
O=C(O)CC1=C(O)C(=O)N(c2ccccc2)C1c1ccccc1 (stereo unspecified) | i | -0.4 | -2.9%
CCN(CC)CCN1C(=O)C(=O)/C(=C(/O)c2ccc(OC)cc2)C1c1ccco1 (stereo unspecified) | i | -0.0061 | 2.6%
O=C1C2CC=CCC2C(=O)N1CNc1ccccc1 (stereo unspecified) | i | . | -0.6%
COC(=O)c1ccccc1NC(NC(=O)c1ccco1)C(=O)c1ccccc1 (stereo unspecified) | i | -0.42 | 4.2%
COc1ccc(N(C(C)=O)S(=O)(=O)c2cc(OC)ccc2OC)cc1 | i | 0.21 | 3.1%
Cn1c(=O)c2c(nc(Sc3ncccn3)n2Cc2ccc(Cl)cc2)n(C)c1=O | i | -0.03 | -1.8%

(listing goes on)
SMILES | MT1-MMP promoter | WNV NS2B-NS3 inh | Hsc70 ATP site
Cc1nn(Cc2cccc(C(=O)NC34CC5CC(CC(C5)C3)C4)c2)c(C)c1Br | i | . | -6.6%
CCC(C(=O)N1CCN(C(=O)c2ccco2)CC1)c1ccccc1 (stereo unspecified) | i | . | -3.3%
COc1ccc(C)cc1NC(=O)CSc1nnc(-c2ccco2)n1Cc1ccco1 | i | -0.37 | -1.7%
Cc1cc(C)n(C(=O)CCCCCCCC(=O)n2nc(C)cc2C)n1 | i | . | 0.1%
CN(Cc1cccs1)S(=O)(=O)c1cccs1 | i | 1.2 | 3.7%
COc1ccc(OC)c(N(CC(=O)N2CCCCC2)S(=O)(=O)c2ccc(OC)c(OC)c2)c1 | i | . | -1.8%
O=C(c1ccc(=O)[nH]c1)N(Cc1ccco1)C1(C(=O)NC2CCCCC2)CCCCC1 | i | -0.79 | 6.2%
NC(=O)C1CCN(C(=O)CSc2nc3c(c(-c4ccccc4)n2)CCCC3)CC1 | i | 0.03 | -2.7%
CCSc1nc(=O)n(-c2ccccc2)c(C)c1C(C)=O | i | 0.7 | -2.8%
Cc1ccc(-c2nc3cc(N)ccc3o2)c(C)c1 | 2.7µM* | 0.58 | -3.0%
O=C(COc1ccc(Cl)cc1)N1CCN(c2ncccn2)CC1 | i | 0.31 | 1.2%
CC1=CC(C)C2C(=O)N(CCC[N+](C)(C)C)C(=O)C2C1 (stereo unspecified) | i | 0.44 | 1.2%
CCOC(=O)c1c(NC(=O)C(F)(OC)C(F)(F)F)sc2c1CCN(C)C2 (stereo unspecified) | i | -1.1 | -6.1%
C=CCn1c(SCC(=O)NCC(=O)OCC)nnc1-c1ccccn1 | i | -0.61 | 1.3%
CN(C)C(=O)Oc1cccc([N+](C)(C)C)c1 | i | 0.1&-0.22 | -1.9%&0.1%
CCc1ccc(NC(=O)c2ccc3c(c2)C(=O)N(Cc2ccco2)C3=O)cc1 | i | -1.6 | 0.4%
Cc1ccccc1Nc1nn2c(=O)c3ccccc3nc2s1 | i | -0.72 | -3.0%
Cc1ccccc1NC(=O)Cc1nc(CSc2nnc(-c3ccc4c(c3)OCO4)o2)cs1 | i | . | -3.2%
O=C(O)c1ccc(OCc2occc2C(=O)O)cc1 | i | 0.92 | -0.3%
COc1ccccc1NC=C1C(=O)OC2(CCCCC2)OC1=O | i | -0.18 | -0.2%

Next section, overlapping the part above by 2 compounds.
SMILES | MT1-MMP promoter | WNV NS2B-NS3 inh | Hsc70 ATP site
O=C(O)c1ccc(OCc2occc2C(=O)O)cc1 | i | 0.92 | -0.3%
COc1ccccc1NC=C1C(=O)OC2(CCCCC2)OC1=O | i | -0.18 | -0.2%
[O-][n+]1c2ccc3nonc3c2nn1-c1ccccc1Cl | i | 0.09 | 1.0%
CC(C)=CCCC(C)CN(C)CCc1ccccn1 (stereo unspecified) | i | -0.35 | 1.2%
COCCCNC(=O)C(Cc1ccccc1)NS(=O)(=O)c1ccc2c(c1)c(=O)n(C)c(=O)n2C (stereo unspecified) | i | 0.15 | -2.7%
Cc1ccc(-n2nnnc2-c2ccco2)cc1 | i | . | -2.4%
CCOc1ccc(C(C)=O)cc1COC(=O)C1=COCCO1 | i | 0.25 | 2.1%
O=C(Nc1ccccc1O)c1cc(S(=O)(=O)N2CCOCC2)c(Cl)cc1Cl | i | -1.2 | -1.4%
COCCNC(=O)C(=O)N/N=C/c1ccccc1C(F)(F)F | i | . | -4.2%
CCOC(=O)c1ccc(NC(=O)CSc2nnc(-c3cccs3)n2C)cc1 | i | -0.73 | 5.4%
CCc1ccc(OCC(=O)NCCN(C)C)c(Br)c1 | i | -0.07 | 7.7%
O=C(Cc1cn2ccsc2n1)NCCc1ccc(F)cc1 | i | 0.77 | -0.3%
Cc1ccc2nc(-c3cccc(N)c3)oc2c1 | 3.7µM* | . | 1.3%
O=C(Nc1ccc2nc3n(c(=O)c2c1)CCCCC3)c1ccccn1 | i | -1.8 | -1.8%
Cc1c(C(=O)N2CCOCC2)[nH]c2c1C(=O)CC(c1ccc(Cl)cc1)C2 (stereo unspecified) | i | -2.2 | 1.6%
Cn1ncc(N=Cc2c(O)ccc3ccccc23)c1C(=O)N1CCOCC1 | i | -0.59 | 0.2%
Cc1ccc(C(=O)Nc2nc3c(s2)CCCC3)o1 | 6µM* | -0.98 | 1.6%
C=CCOc1ccc(CN(C)CC(=O)N(CC(C)C)c2c(N)n(CC(C)C)c(=O)[nH]c2=O)cc1 | i | -1.1 | -1.9%
Cc1ccc(C)c2[nH]c(=O)c(CN(Cc3nnnn3C3CCCCC3)CC3CCCO3)cc12 (stereo unspecified) | i | -0.09 | -3.5%
COc1cccc(-c2cc(C(F)(F)F)nc(NCc3ccco3)n2)c1 | i | -1.5 | -0.2%
CCOC(=O)c1ccc(NC(=O)Cn2nnc(-c3ccccc3C)n2)cc1 | i | 0.32 | 0.6%
O=C(O)CSCC(=O)Nc1ccccc1 | i | . | -8.6%
COc1ccc(CNC(=O)COC(=O)c2n[nH]c3ccccc23)cc1 | i | 0.94 | -4.8%
Cc1cc(C(N)=O)c2ccccc2n1 | i | -0.23 | 3.8%

In the list so far, 10 contain an NH in an aromatic ring.
SMILES | MT1-MMP promoter | WNV NS2B-NS3 inh | Hsc70 ATP site
CC(C)CSc1nnc2[nH]c(=O)cc(N)n12 | i | 0.03 | -3.1%
CCOC(=O)c1[nH]c2ccc(C)cc2c1N=CN(CC)CC | i | 0.18 | 2.2%
Cc1ccc(SC(C)C(=O)Nc2ncn[nH]2)cc1 (stereo unspecified) | i | 1.7 | 2.4%
Cc1cccc(OCCSc2ncnc3nc[nH]c23)c1 | i | . | -1.1%
CCOC(=O)N1CCN(c2c(Nc3cc(C)[nH]n3)c(=O)c2=O)CC1 | i | 0.39 | -5.1%
O=C(c1ccc(=O)[nH]c1)N(Cc1ccco1)C1(C(=O)NC2CCCCC2)CCCCC1 | i | -0.79 | 6.2%
Cc1c(C(=O)N2CCOCC2)[nH]c2c1C(=O)CC(c1ccc(Cl)cc1)C2 (stereo unspecified) | i | -2.2 | 1.6%
C=CCOc1ccc(CN(C)CC(=O)N(CC(C)C)c2c(N)n(CC(C)C)c(=O)[nH]c2=O)cc1 | i | -1.1 | -1.9%
Cc1ccc(C)c2[nH]c(=O)c(CN(Cc3nnnn3C3CCCCC3)CC3CCCO3)cc12 (stereo unspecified) | i | -0.09 | -3.5%
COc1ccc(CNC(=O)COC(=O)c2n[nH]c3ccccc23)cc1 | i | 0.94 | -4.8%
